Hedgehog cleavage: Drosophila hedgehog isoform A inhibitors, primary screen, biochemical, plate reader, single concentration (AID 588832) | Biochemical plate reader assay, Hedgehog inhibition; stronger effect = higher value | inhibition, % at 30.3 µM | 8,000 tested, under 10 active; in the data active = inhibition from about 57%;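 note: 0% = neutral control wells and 100% = positive control wells; cholesterol-driven self-cleavage of fly hedgehog protein by fluorescence polarization; read one hour after cholesterol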
* hit, by the source's call. Only part of the results is shown (hit frequency here may not be typical).

Preview:
Hedgehog cleavage	molecule
9	COc1ccc(-c2nc(Cn3c(SCc4ccccc4F)nc4ccncc43)c(C)o2)cc1
19	Cc1cc2c(cc1S(=O)(=O)NCc1ccccc1)n(C)c(=O)c(=O)n2C
8	CC(=O)N1c2ccc(S(=O)(=O)N3CCCC3C(=O)Nc3ccc(C)cc3)cc2CC1C (stereo not drawn)
5	COc1ccc(OC)c(NC(=O)Cc2ccc(NC3=NC4CS(=O)(=O)CC4S3)cc2)c1 (stereo not drawn)

This part in full, previewed entries included:
Hedgehog cleavage	molecule
9	COc1ccc(-c2nc(Cn3c(SCc4ccccc4F)nc4ccncc43)c(C)o2)cc1
19	Cc1cc2c(cc1S(=O)(=O)NCc1ccccc1)n(C)c(=O)c(=O)n2C
8	CC(=O)N1c2ccc(S(=O)(=O)N3CCCC3C(=O)Nc3ccc(C)cc3)cc2CC1C (stereo not drawn)
5	COc1ccc(OC)c(NC(=O)Cc2ccc(NC3=NC4CS(=O)(=O)CC4S3)cc2)c1 (stereo not drawn)
3	Cc1ccc(CCNC(=O)CCS(=O)(=O)c2cc3c(cc2C)NC(=O)CO3)cc1
7	COC(=O)c1ccc2c(c1)N(Cc1ccccc1F)C(=O)c1ccccc1S2=O (stereo not drawn)
10	COc1ccccc1NS(=O)(=O)c1cc2c(cc1C)NC(=O)CO2
0	CCC(C)NC(=O)c1cc(-c2ccccc2O)on1 (stereo not drawn)
17	COc1cc2c(cc1OC)C(C)N(C(=O)c1cc3c(=O)oc4ccc(C)cc4c3s1)CC2 (stereo not drawn)
-2	COc1cc2c(cc1OC)[C@H](C)N(C(=O)CSc1nc(O)c(C(C)C)c(=O)[nH]1)CC2
21	Cn1cccc1Cc1nnc(SCC(=O)NC2CCCC2)n1-c1ccc(F)cc1
8	COc1cc2ncc(S(=O)(=O)c3ccccc3)c(N3CCCC(C)C3)c2cc1OC (stereo not drawn)
7	CC(C)Cc1cc(C(=O)Nc2sc3c(c2C#N)CCC3)no1
5	CC(NC(=O)c1ccc(NC2=NC3CS(=O)(=O)CC3S2)cc1)c1ccccc1 (stereo not drawn)
0	CCOC(=O)N1CCN(S(=O)(=O)c2ccc(C(=O)NNc3nc4c(C)cccc4s3)cc2)CC1
2	COc1c(OC)c(O)c2c(=O)c(O)c(-c3ccccc3)oc2c1OC
7	CCCCc1cc(=O)oc2c(C)c(OCC(=O)N3CCC(C(=O)O)(c4ccccc4)CC3)ccc12
-2	O=C(NCc1nc2ccccc2[nH]1)c1cccs1
10	Cn1cc(S(=O)(=O)N2CCC(C(N)=O)CC2)c(=O)n(C)c1=O
7	CC1(C2CCC3(C)OC3C2)CO1 (stereo not drawn)

(further entries)
Hedgehog cleavage	molecule
4	CCOC(=O)COc1cccc2c(=O)n(CC(=O)N3CCN(C(=O)OCC)CC3)ccc12
5	Cn1c(=O)c2c(SCc3ccccn3)nc(CC(C)(C)C)nc2n(C)c1=O
11	COc1cccc2c(=O)n(CC(=O)N3CCCCC3)ccc12
17	CCOCCOC(=O)c1[nH]c2c(c1C)C(=O)CC(c1ccc(N(C)C)cc1)C2 (stereo not drawn)
4	COc1ccc(OCC(O)CN2CCCCC2)cc1 (stereo not drawn)
16	CCN(CC)c1ccc2c(C)cc(=O)oc2c1
16	CCCCN(CC)CCCNC(=O)c1cc2c(=O)n(C)c3ccccc3c2n1C
15	Cc1cccc2c1cnn2C(=O)CCC(=O)NCc1ccc(F)cc1
20	COc1ccc(-n2c(Cc3cc(=O)[nH]c(=O)[nH]3)nnc2SCC(=O)N2CCCC2)cc1
2	COc1cc2[nH]c3c(c2cc1OC)CCN1CCCC[C@@H]31
11	CC1CCN(C(=O)CCS(=O)(=O)c2cc3c(cc2Cl)NC(=O)CO3)CC1
3	COc1c(CC=C(C)C)c(O)cc2oc(=O)c3c4ccc(O)cc4oc3c12
9	COc1cccc2cc(C(=O)N3CCN(c4ccc(C)cc4C)CC3)c(=O)oc12
9	COc1ccc(N(CC(=O)Nc2ccc3c(c2)OCCO3)S(=O)(=O)c2c(C)nn(C)c2C)cc1
5	COC(=O)C(C)Sc1nc2c(cnn2-c2ccccc2)c(=O)[nH]1 (stereo not drawn)
0	CC(=O)Oc1ccc2c(=O)c(-c3ccccc3)c(C)oc2c1
5	Cc1cc2cc(CNC(=O)c3ccc(S(=O)(=O)N4CCCCC4)cc3)ccc2n1C
7	N#Cc1ccccc1
12	CCN1CCN(C(=O)c2cc3c(=O)oc4ccc(C)cc4c3s2)CC1
4	CCOC(=O)c1ccc(NC(=O)COc2cc(=O)n(CC)c3ccccc23)cc1

(list continues)
Hedgehog cleavage	molecule
4	O=C(CCC(=O)N1CCOc2ccccc21)NCCCN1CCOCC1
7	COc1cc2c(cc1OC)C(C)N(Cc1ccc3c(c1)OCO3)CC2 (stereo not drawn)
3	Cc1cc(C)c2nc(NNC(=O)c3ccc(S(=O)(=O)N4CCCCC4)cc3)sc2c1
4	CCOC(=O)C(C)Sc1nnc(Cn2c(=O)sc3ccccc32)n1-c1ccccc1 (stereo not drawn)
9	O=c1cc(N2CCOCC2)[nH]c(=O)n1Cc1ccc(F)cc1
7	CCN(C(=O)C1CCN(S(=O)(=O)c2cccc3nonc23)CC1)c1ccccc1
15	COc1ccc(C(=O)N2CCN(c3ccc(C)cc3)CC2)cc1OC
8	Cc1ccc(CCNC(=O)CC2Oc3ccc(C)cc3NC2=O)cc1 (stereo not drawn)
-3	COc1cc(C)c(C(=O)Oc2cc(C)c(C(=O)O)c(O)c2C)c(OC)c1C
29	COc1ccc(NC(=O)C2CCCN(S(=O)(=O)c3cccnc3)C2)c(OC)c1 (stereo not drawn)
-4	Cc1cc2ccccc2n1CCNC(=O)c1ccc(S(=O)(=O)N2CCCCC2)cc1
2	O=C(Nc1nc2c(Cl)ccc(Cl)c2s1)C1CC1
23	O=C(c1cc2c(ccc3ccccc32)oc1=O)N1CCN(CCO)CC1
23	CN1CCN(C(=O)c2ccc3c(c2)N(Cc2cccc(Cl)c2)C(=O)c2ccccc2S3=O)CC1 (stereo not drawn)
6	COc1ccc(CCNC(=O)C(=O)NCC2OCCN2S(=O)(=O)c2ccc(OC)c(OC)c2)cc1 (stereo not drawn)
9	Cc1c(OCC(=O)N[C@@H](CSCc2ccccc2)C(=O)O)ccc2c3c(c(=O)oc12)CCC3
0	Cc1cccc(NC(=O)C2CCN(S(=O)(=O)c3c(C)nn(C)c3C)CC2)n1
2	O=C1c2ccccc2C(O)N1Cc1ccco1 (stereo not drawn)
9	CCc1ccc(NC(=O)C2CCN(C(=O)N3CCOc4ccccc43)CC2)cc1
10	Cc1ccc(C(=O)NCc2ccc3c(c2)OCO3)cc1N1CCCC1=O

Compounds shown so far containing a furan ring, fused or not, in the order listed:
Hedgehog cleavage	molecule
3	COc1c(CC=C(C)C)c(O)cc2oc(=O)c3c4ccc(O)cc4oc3c12
2	O=C1c2ccccc2C(O)N1Cc1ccco1 (stereo not drawn)

Sorted by the number under Hedgehog cleavage (largest number first): some entries from above.
| molecule | Hedgehog cleavage |
| --- | --- |
| O=C(c1cc2c(ccc3ccccc32)oc1=O)N1CCN(CCO)CC1 | 23 |
| Cc1c(OCC(=O)N[C@@H](CSCc2ccccc2)C(=O)O)ccc2c3c(c(=O)oc12)CCC3 | 9 |
| Cc1ccc(CCNC(=O)CC2Oc3ccc(C)cc3NC2=O)cc1 (stereo not drawn) | 8 |
| O=C1c2ccccc2C(O)N1Cc1ccco1 (stereo not drawn) | 2 |
| Cc1cccc(NC(=O)C2CCN(S(=O)(=O)c3c(C)nn(C)c3C)CC2)n1 | 0 |
| Cc1cc2ccccc2n1CCNC(=O)c1ccc(S(=O)(=O)N2CCCCC2)cc1 | -4 |

Following part.
Hedgehog cleavage	molecule
10	CCOC(=O)c1ccc2[nH]c3ccccc3c2c1
4	CCCc1nc(SCC(=O)Nc2cc(C)on2)c2c(=O)n(C)c(=O)n(C)c2n1
4	COc1cccc(CNC(=O)c2cccc(NC3=NC4CS(=O)(=O)CC4S3)c2)c1 (stereo not drawn)
7	CC(C)[C@H](NC(=O)N1CC(=O)Nc2ccccc21)C(=O)N[C@H](Cc1c[nH]c2ccccc12)C(=O)O
3	COc1cccc(-c2nc(CS(=O)(=O)CC(=O)NC3CCCc4ccccc43)c(C)o2)c1 (stereo not drawn)
10	c1ccc2occc2c1
2	COC(=O)Cn1c(=NC(=O)CSCC(=O)Nc2cc(C)on2)sc2cc(C(=O)OC)ccc21
0	Cc1cccc(NS(=O)(=O)c2cc3c(cc2C)NC(=O)CO3)c1
8	O=c1[nH]c2ccccc2c(O)c1O
15	Cn1c(=O)oc2cc(S(=O)(=O)NC3CCN(Cc4ccccc4)CC3)ccc21
4	CCN1CCN(C(=O)CS(=O)Cc2nc(-c3ccc(OC)cc3)oc2C)CC1 (stereo not drawn)
1	CCOC(=O)c1c(C)c(-c2ccccc2)n(CC(=O)N2CCCC2)c1C
4	Cc1ccc2ccc3cccc4ccc1c2c34
3	N#CC1=C2SCN(Cc3ccccc3)CN2C(=O)CC1c1ccccc1F (stereo not drawn)
4	O=C(COc1ccc(S(=O)(=O)NC2CCCCC2)cc1)N1CCN(c2ccc(F)cc2)CC1
9	COc1ccc(C(=O)/C=C/c2ccccc2)c(OC)c1
-4	CC(C)N1CC23C=CC(O2)C(C(=O)OCc2ccccc2)C3C1=O (stereo not drawn)
-2	COc1cccc(CNC(=O)c2cc(S(=O)(=O)N3CCOCC3)cn2C)c1
3	O=C(Cn1cnc2c(nnn2Cc2ccccc2)c1=O)N1CCCc2ccccc21
2	COc1ccc(-c2noc(N3CCC(C(=O)NCc4ccc(Cl)cc4)CC3)n2)cc1

Continuation:
Hedgehog cleavage	molecule
4	O=C(CCN1CCN(c2ccccc2)CC1)Nc1cccc(Br)c1
12	Cc1ccn2cc(CCNS(=O)(=O)c3ccc4c(c3)CCCC4)nc2c1
10	CCC(=O)N=c1sc2c(C)cc(C)cc2n1CC(=O)OC
5	Cc1oc(-c2ccc(Cl)cc2)nc1CS(=O)CC(=O)NCc1cccs1 (stereo not drawn)
10	CCc1cccc(Nc2cc(C)nc3ncnn23)c1
5	CCCc1cc(=O)oc2cc(C)cc(OCC(=O)N[C@@H](CSCc3ccccc3)C(=O)O)c12
29	Cn1c(=O)oc2cc(S(=O)(=O)Nc3ccc(Cl)cc3F)ccc21
15	Cn1c(C(=O)N2CCN(C(=O)c3ccco3)CC2)cc2c(=O)n(C)c3ccccc3c21
17	O=c1oc(-c2ccc(O)c(O)c2)cc2cc(O)cc(O)c12
9	COc1cc2c(cc1OC)C(=O)Cc1ccc3c(c1CN(C)CC2)OCO3
5	CC(C)C(=O)N1CCN(c2ccccc2N)CC1
4	COc1ccc(C(c2sc3nc(C)nn3c2O)N2CCC(O)CC2)cc1OC (stereo not drawn)
5	COc1ccc(CNC(=O)[C@@H](C)NC(=O)C2CCN(C(=O)[C@@H](N)CCSC)CC2)cc1
4	COc1ccc(C2CC(=O)N3CN(c4ccc(C)c(Cl)c4)CSC3=C2C#N)cc1 (stereo not drawn)
7	O=C(Nc1nc2c(F)cc(F)cc2s1)c1ccc([N+](=O)[O-])o1
5	COc1ccc(CC(=O)c2ccc(O)cc2O)cc1
0	COc1ccc(N(CC(=O)Nc2ccc3c(c2)OCO3)S(=O)(=O)c2c(C)nn(C)c2C)cc1
4	O=C(Cc1cccs1)NCCc1cn2ccccc2n1
7	C[C@@H]1[C@H](O)C[C@@]23COC(=O)C2=CCCC3[C@@]1(C)CCC1COC(=O)C1 (stereo partly drawn)
2	Cc1ccc(S(=O)(=O)NC2CCCCC2)cc1

(further entries)
Hedgehog cleavage	molecule
2	COc1cccc(-c2nc(CS(=O)CC(=O)NC3CCCC3)c(C)o2)c1 (stereo not drawn)
8	CCCOC(=O)C1C2C=CC3(CN(c4ccc(Cl)c(F)c4)C(=O)C13)O2 (stereo not drawn)
29	CCOCCCNC(=O)Cn1cc2c(n1)CCCC2
5	C[C@@]12CC[C@H]3OC(=O)C=C3C1CC[C@@]13CC(CCC12)[C@](CO)(O[C@H]1O[C@H](CO)[C@@H](O)[C@H](O)[C@H]1O)C3 (stereo partly drawn)
5	O=C1C=C(C2OC(CO)C(O)C2O)C(=O)N1 (stereo not drawn)
0	Cc1c(OCC(=O)NC(Cc2ccc(Cl)cc2)C(=O)O)ccc2c3c(c(=O)oc12)CCCC3 (stereo not drawn)
5	COCCN1C(=O)c2cc(C(=O)Nc3ccc(C)c(F)c3)ccc2C1Nc1ccc(C)c(F)c1 (stereo not drawn)
2	CCCn1c(CNS(=O)(=O)c2ccc(C)cc2)nc2ccccc21
7	O=C(C(Cc1ccccc1)n1cccc1)N1CCCCCC1 (stereo not drawn)
34	COc1ccc(-c2nc(Cn3c(SCc4ccc(C)cc4)nc4ccncc43)c(C)o2)cc1OC
3	CCn1cc(C(=O)O)c(=O)c2cc(F)c(N3CCN(C)CC3)cc21
12	Cc1ccc(-c2nc(C(=O)NC3CCCCCC3)no2)cc1
0	CCn1c(SC(C)C)nnc1-c1c[nH]c2ccccc12
3	O=C(Nc1cccnc1)C(Cc1ccccc1)n1cccc1 (stereo not drawn)
9	Cc1coc2c(C)c3oc(=O)c(CCC(=O)NCCCN4CCCC4=O)c(C)c3cc12
9	O=C(Nc1nnc(S(=O)(=O)N2CCCCC2)s1)c1cccc(Br)c1
9	Cc1ccc(C2CC(c3ccco3)n3nc(N)nc3N2)cc1 (stereo not drawn)
0	COc1ccc(C(=O)c2oc3ccc(OC)cc3c2N)cc1
-3	CCCCCCCCCCCCC(=O)CCCCC(=O)O
7	Cc1csc2ncc(C(=O)N3c4ccccc4CC3C)c(=O)n12 (stereo not drawn)

Remaining list, next part:
Hedgehog cleavage	molecule
7	CCN1CCN(C(c2cccs2)C(C)NC(=O)c2ccccc2)CC1 (stereo not drawn)
3	COc1cc2c(c(OC)c1CC=C(C)C)C[C@H](c1ccc(O)cc1O)CO2
-2	COc1ccc(-c2cc(=O)oc3cc(OC(C)C(=O)NCC4CCC(C(=O)O)CC4)ccc23)cc1 (stereo not drawn)
5	Cc1ccc2oc3ccccc3c(=O)c2c1

Bioassay records: PubChem, Broad Institute
